Compound activity from PubChem.
c-Myc SMM = binders of human c-Myc. P01106. small molecule microarray, His-c-Myc binding, anti-His fluorescence. calls only. actives 1.5% (n = 17,000). AID 624141;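 active means spot fluorescence over background with P-value below 7% in all four replicate spots, showing protein binding; compounds were printed on slides so no solution concentration is given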;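 further: score is binary with 100 for all four spots passing and 0 otherwise; about 2 pmol printed per array spot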
Target sequence (P01106 whole entry, looked up): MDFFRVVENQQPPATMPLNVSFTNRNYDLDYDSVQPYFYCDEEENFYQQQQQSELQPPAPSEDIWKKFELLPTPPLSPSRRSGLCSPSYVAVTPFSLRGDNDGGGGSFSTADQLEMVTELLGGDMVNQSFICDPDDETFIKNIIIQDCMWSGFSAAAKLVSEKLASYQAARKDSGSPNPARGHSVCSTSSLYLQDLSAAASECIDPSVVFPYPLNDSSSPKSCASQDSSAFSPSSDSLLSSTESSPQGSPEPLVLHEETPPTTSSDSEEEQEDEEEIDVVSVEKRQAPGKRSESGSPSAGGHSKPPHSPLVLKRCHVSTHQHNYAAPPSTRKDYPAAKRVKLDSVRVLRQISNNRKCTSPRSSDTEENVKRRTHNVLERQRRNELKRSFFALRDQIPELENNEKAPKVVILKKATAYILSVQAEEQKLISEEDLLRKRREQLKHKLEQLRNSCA
mut p53 SMM = mutant p53 (human) binding | small molecule microarray binding, anti-GST fluorescence | calls only | actives 0.4% (n = 17,000);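 active means compounds whose four printed spots each glow above background more than chance allows, each with a p-value under 7%; compounds were printed on slides so no solution concentration is given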;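 further: about 2 pmol printed per array spot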
STAT3 binder = binds human STAT3 on microarray; P40763; Small molecule microarray, His-STAT3 binding, anti-His fluorescence; calls only; actives 0.2% (n = 17,000);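 active means compounds whose four printed spots each show fluorescence over background unusually high for their array block, chance value under 7%; compounds were printed on slides so no solution concentration is given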;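 further: about 2 pmol printed per array spot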
ID4 binder = ID4 (human) binding. P47928. small molecule microarray, Flag-ID4 binding, fluorescence F/B. calls only. actives 1.2% (n = 31,000). AID 624137;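 active means spot signal over background at p below 0.07 in all four prints; compounds were printed on slides so no solution concentration is given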;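 further: a binder raises fluorescence above local background on the spot; about 2 pmol printed per array spot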
Target sequence (P47928 whole entry, looked up): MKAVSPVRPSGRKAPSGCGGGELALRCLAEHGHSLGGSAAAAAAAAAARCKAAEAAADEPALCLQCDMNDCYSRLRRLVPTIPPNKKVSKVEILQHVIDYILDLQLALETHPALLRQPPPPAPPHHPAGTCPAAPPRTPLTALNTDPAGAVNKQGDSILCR
Calls only; i = inactive; . = no result given; + = active, no number. These rows are one share of the data. The share of hits here may be higher or lower than overall.

structure	c-Myc SMM	mut p53 SMM	STAT3 binder	ID4 binder
C[C@@H]1CCCCO[C@H](CN(C)Cc2ccc(C(F)(F)F)cc2)[C@H](C)CN([C@H](C)CO)C(=O)c2cc(NC(=O)Nc3cccc4ccccc34)ccc2O1	i	i	i	.
CC(C)NC(=O)N(C)C[C@H]1OCCCC[C@H](C)Oc2ccc(NC(=O)Nc3ccc(C(F)(F)F)cc3)cc2C(=O)N([C@H](C)CO)C[C@H]1C	i	i	i	i
COc1ccc(S(=O)(=O)Nc2ccc3c(c2)C(=O)N([C@@H](C)CO)C[C@@H](C)[C@H](CN(C)S(=O)(=O)c2cccs2)O3)cc1	i	i	i	i
C[C@@H]1CCCCO[C@@H](CN(C)Cc2ccncc2)[C@@H](C)CN([C@@H](C)CO)C(=O)c2cc(NC(=O)CCCN(C)C)ccc2O1	i	i	i	i
C[C@H]1CCCCO[C@H](CN(C)C)[C@@H](C)CN([C@@H](C)CO)C(=O)c2cc(NC(=O)Nc3ccccc3)ccc2O1	i	i	i	i
C[C@@H]1CN([C@@H](C)CO)C(=O)c2cc(NS(=O)(=O)c3ccc(F)cc3)ccc2O[C@@H](C)CCCCO[C@@H]1CN(C)Cc1ccccc1	i	i	i	.
O=C1CCC(=O)N(O)CCCCCNC(=O)CCC(=O)N(O)CCCCNC(=O)CCC(=O)N(O)CCCCN1	i	i	i	.
CN(CCO)S(=O)(=O)c1cccc(C(=O)O)c1	i	i	i	i
Cc1noc(C)c1S(=O)(=O)N(C)C[C@@H]1Oc2ccc(NC(=O)C3CCCCC3)cc2CC(=O)N([C@H](C)CO)C[C@H]1C	i	i	i	i
O=C1N(Cc2ccccc2)Cc2ccccc2[C@H]2OC(c3ccc(OCCCO)cc3)=N[C@@]12CCS(=O)(=O)c1ccccc1	i	i	i	i
CN(CC(=O)Nc1cccc([N+](=O)[O-])c1)S(=O)(=O)c1ccccc1	i	i	i	i
CCC(C)C(O)C(C)(O)/C=C/C1=CC2=C(Cl)C(=O)C(C)(O)C(OC(C)=O)C2CO1 (stereo not drawn)	i	i	i	.
COc1cccc(-c2nn(-c3ccccc3)cc2C(=O)n2nnc3ccccc32)c1	i	i	i	i
CCOC(=O)c1c(NC(=O)Cn2nnc(-c3ccccc3)n2)sc2c1CCCC2	i	i	i	i
COc1ccc(CN(C)C[C@H]2Oc3ccc(NC(=O)Cn4cnnn4)cc3C(=O)N([C@H](C)CO)C[C@@H]2C)cc1	i	i	i	i
COC1C(O)C(CO)OC1n1cnc2c(NC3CCCCC3)ncnc21 (stereo not drawn)	i	i	i	i
C[C@@H]1CN([C@@H](C)CO)C(=O)c2cc(NS(=O)(=O)c3cn(C)cn3)ccc2O[C@@H](C)CCCCO[C@H]1CN(C)C(=O)c1ccncc1	i	i	i	.
Cc1noc(C)c1S(=O)(=O)Nc1ccc2c(c1)C(=O)N([C@H](C)CO)C[C@@H](C)[C@@H](CN(C)C(=O)Cc1ccccc1)OCCCC[C@@H](C)O2	i	i	i	i
CCC(Sc1ncccn1)C(=O)Nc1c(C)cccc1C (stereo not drawn)	i	i	i	i
C[C@H](CO)N1C[C@H](C)[C@H](CN(C)S(=O)(=O)c2cccs2)Oc2ccc(NC(=O)C3CC3)cc2CC1=O	i	i	i	i
Cc1ccc(N(CC(=O)NC2CCCC2)S(C)(=O)=O)cc1	i	i	i	i
Cc1noc(C)c1NC(=O)Nc1ccc2c(c1)C(=O)N([C@@H](C)CO)C[C@@H](C)[C@H](CN(C)C(=O)CCCN(C)C)OCCCC[C@H](C)O2	i	i	i	i
CC(C)n1cnc2c(NCc3ccccc3)nc(NCCCO)nc21	i	i	i	.
C[C@H](CO)N1C[C@H](C)[C@H](CN(C)C(=O)Nc2ccc(C(F)(F)F)cc2)Oc2c(NC(=O)NC3CCCCC3)cccc2C1=O	i	i	i	i
COc1ccc(C(=O)Nc2ccccc2C(=O)N2CCN(CCO)CC2)cc1	i	i	i	i

Following part.
structure	c-Myc SMM	mut p53 SMM	STAT3 binder	ID4 binder
COc1nnc(-c2ccc(N3CCOCC3)c(NC(=O)COc3ccc(C)cc3)c2)c2ccccc12	i	i	i	i
C[C@@H]1CN([C@H](C)CO)C(=O)c2cc(NS(=O)(=O)c3ccc(Cl)cc3)ccc2O[C@@H]1CN(C)C(=O)Nc1ccc2c(c1)OCO2	i	i	i	i
Cc1ccc(NCC(O)CSc2nc3c(cc2C#N)CCCC3)cc1 (stereo not drawn)	i	i	i	i
CC(C)NC(=O)N(C)C[C@H]1OCCCC[C@@H](C)Oc2ccc(NC(=O)Cc3ccccc3)cc2C(=O)N([C@@H](C)CO)C[C@@H]1C	i	i	i	i
C[C@@H]1CN([C@H](C)CO)C(=O)Cc2cc(NC(=O)Nc3ccccc3)ccc2O[C@@H]1CN(C)CC1CC1	i	i	i	i
Cc1noc(C)c1NC(=O)N(C)C[C@@H]1Oc2ccc(NC(=O)Nc3ccc(F)cc3)cc2C(=O)N([C@H](C)CO)C[C@H]1C	i	i	i	i
COc1ccccc1N1C(=O)CC(Sc2nccc(C)n2)C1=O (stereo not drawn)	i	i	i	i
O=S1(=O)N=C(N(CCO)c2ccc(Cl)cc2)c2ccccc21	i	i	i	i
CC(C)NC(=O)N(C)C[C@@H]1Oc2ccc(NS(=O)(=O)c3cccs3)cc2CC(=O)N([C@@H](C)CO)C[C@@H]1C	i	i	i	i
COc1ccc(S(=O)(=O)N(C)C[C@H]2Oc3c(NC(=O)NC4CCCCC4)cccc3C(=O)N([C@@H](C)CO)C[C@H]2C)cc1	i	i	i	i
C[C@@H]1CN([C@@H](C)CO)C(=O)c2cccc(NC(=O)C3CCOCC3)c2O[C@H]1CN(C)Cc1ccc(C(=O)O)cc1	i	i	i	i
CC(C)n1c(SCCC(=O)O)nc2ccccc21	i	i	i	i
COc1ccc(S(=O)(=O)Nc2ccc3c(c2)C(=O)N([C@@H](C)CO)C[C@@H](C)[C@H](CN(C)S(=O)(=O)c2cn(C)cn2)O3)cc1	i	i	i	i
CC(C)NC(=O)N(C)C[C@@H]1Oc2ccc(NC(=O)C3CC3)cc2C(=O)N([C@H](C)CO)C[C@@H]1C	i	i	i	i
C[C@@H]1CN([C@H](C)CO)C(=O)c2cc(NC(=O)Nc3ccc(F)cc3)ccc2O[C@@H]1CN(C)Cc1ccncc1	i	i	i	i
CC(C)NC(=O)N(C)C[C@@H]1Oc2ccc(NC(=O)CCN3CCOCC3)cc2C(=O)N([C@H](C)CO)C[C@H]1C	i	i	i	i
COc1ccc(CN(C(=O)c2oc3cc(C)c(C)cc3c2C)C2CCS(=O)(=O)C2)cc1OC (stereo not drawn)	i	i	i	i
C=CCCN(CC#C[C@H]1Oc2ccccc2S(=O)(=O)N2CCC[C@@H]12)S(=O)(=O)c1ccc(C)cc1	i	i	i	i
COc1ccc(S(=O)(=O)N(C)C[C@@H]2Oc3c(NC(=O)c4cc(C)nn4C)cccc3C(=O)N([C@H](C)CO)C[C@@H]2C)cc1	i	i	i	i
C[C@@H]1CCCCO[C@@H](CN(C)Cc2ccc(C(=O)O)cc2)[C@@H](C)CN([C@@H](C)CO)C(=O)c2cc(NS(=O)(=O)c3ccccc3)ccc2O1	i	i	i	i
CC1(C)CC[C@]2(C(=O)O[C@@H]3O[C@H](CO)[C@@H](O)[C@H](O)[C@H]3O)CC[C@]3(C)C(=CCC4[C@@]5(C)C[C@@H](O)[C@H](O)[C@@](C)(CO)C5[C@H](O)C[C@]43C)C2C1 (stereo partly drawn)	i	i	i	i
C[C@@H]1CN([C@H](C)CO)C(=O)c2cc(N(C)C)ccc2O[C@@H](C)CCCCO[C@@H]1CN(C)C(=O)CCC(F)(F)F	i	i	i	i
C[C@@H]1CN([C@H](C)CO)C(=O)c2cc(N(C)C)ccc2O[C@H]1CN(C)S(=O)(=O)c1cccs1	i	i	i	i
Cc1noc(C)c1S(=O)(=O)N(C)C[C@H]1Oc2ccc(NC(=O)Cc3cn(C)c4ccccc34)cc2CC(=O)N([C@H](C)CO)C[C@@H]1C	i	i	i	i
C[C@H](CO)N1C[C@H](C)[C@@H](CN(C)C(=O)Nc2cccc3ccccc23)Oc2ccc(NC(=O)NC3CCCCC3)cc2CC1=O	i	i	i	i

Single records, from the list above:
COc1ccc(S(=O)(=O)N(C)C[C@@H]2Oc3c(NC(=O)c4cc(C)nn4C)cccc3C(=O)N([C@H](C)CO)C[C@@H]2C)cc1 is listed with c-Myc SMM = i; mut p53 SMM = i; STAT3 binder = i; ID4 binder = i
CC(C)NC(=O)N(C)C[C@@H]1Oc2ccc(NS(=O)(=O)c3cccs3)cc2CC(=O)N([C@@H](C)CO)C[C@@H]1C is listed with c-Myc SMM = i; mut p53 SMM = i; STAT3 binder = i; ID4 binder = i

The listing continues.
The line under a structure holds: c-Myc SMM	mut p53 SMM	STAT3 binder	ID4 binder
COc1ccc(CN(C)C[C@@H]2Oc3ccc(NC(=O)C4CC4)cc3CC(=O)N([C@H](C)CO)C[C@@H]2C)cc1
  i	i	i	i
C[C@H](CO)N1C[C@H](C)[C@@H](CN(C)S(=O)(=O)c2ccccc2)OCc2cn(nn2)CCCC1=O
  i	i	i	i
COc1ccc(NC(=O)CNS(=O)(=O)c2ccccc2)cc1OC
  i	i	i	i
CC(C)NC(=O)N(C)C[C@@H]1Oc2ccc(NC(=O)CCCN(C)C)cc2C(=O)N([C@H](C)CO)C[C@H]1C
  i	i	i	i
C[C@@H]1CCCCO[C@H](CN(C)C(=O)Nc2ccccc2)[C@@H](C)CN([C@@H](C)CO)C(=O)c2cc(NC(=O)CCCN(C)C)ccc2O1
  i	i	i	i
C[C@H]1CN([C@@H](C)CO)C(=O)Cc2cc(NS(=O)(=O)c3cn(C)cn3)ccc2O[C@H]1CN(C)Cc1ccncc1
  i	i	i	.
C[C@H](CO)N1C[C@H](C)[C@@H](CN(C)C(=O)Nc2ccc3c(c2)OCO3)Oc2ccc(NC(=O)Cc3ccccc3)cc2C1=O
  i	i	i	i
C[C@@H]1CN([C@H](C)CO)C(=O)c2cc(N(C)C)ccc2O[C@@H](C)CCCCO[C@@H]1CN(C)C(=O)Nc1ccccc1
  i	i	i	i
COc1cc2c(cc1OC)CN(C(=O)[C@@H]1[C@H]3C(=O)O[C@H](c4ccccc4)[C@H](c4ccccc4)N3[C@H](c3ccc(OCCO)cc3)[C@@]13C(=O)Nc1ccc(C#CC4(O)CCCCCC4)cc13)CC2
  i	i	i	i
C[C@@H]1CN([C@H](C)CO)C(=O)c2cc(NC(=O)Nc3ccccc3)ccc2O[C@@H](C)CCCCO[C@@H]1CN(C)S(=O)(=O)c1ccccc1
  i	i	i	i
Cc1ccc(OCC(=O)Nc2cccc(NC(=O)c3ccccc3)c2)cc1C
  i	i	i	i
CC(C)NC(=O)N(C)C[C@@H]1OCc2cn(nn2)CCCC(=O)N([C@@H](C)CO)C[C@H]1C
  i	i	i	i
C[C@@H]1CCCCO[C@@H](CN(C)C(=O)c2ccccc2)[C@H](C)CN([C@H](C)CO)C(=O)c2cc(N(C)C)ccc2O1
  i	i	i	.
Cc1ccccc1-c1cc(C(=O)NCCCn2ccnc2)c2cc(Cl)ccc2n1
  i	i	i	i
CCOc1ccc(Oc2nc(N3CCOCC3)nc(N3CCOCC3)n2)nn1
  i	i	i	i
C/C(=C\CCC1(C)C2CCC(C2)C1(C)O)C(=O)O (stereo not drawn)
  i	i	i	i
CC1(C)CC(=O)c2cc(C(=O)NCc3ccco3)c(=O)n(-c3ccc(Cl)cc3)c2C1
  i	i	i	i
C[C@H]1CCCCO[C@@H](CN(C)C(=O)Nc2ccccc2)[C@@H](C)CN([C@@H](C)CO)C(=O)c2cc(NS(C)(=O)=O)ccc2O1
  i	i	i	i
COc1ccc(NC(=O)N(C)C[C@H]2OCCCC[C@H](C)Oc3ccc(NC(=O)Nc4c(C)noc4C)cc3C(=O)N([C@H](C)CO)C[C@@H]2C)cc1
  i	i	i	.
COc1ccc(S(=O)(=O)n2nc(C)cc2C)cc1N(C)S(=O)(=O)c1ccccc1
  i	i	i	i

The list goes on.
The line under a structure holds: c-Myc SMM	mut p53 SMM	STAT3 binder	ID4 binder
Cc1noc(C)c1NC(=O)N(C)C[C@H]1Oc2c(NC(=O)c3cnccn3)cccc2C(=O)N([C@@H](C)CO)C[C@H]1C
  i	i	i	i
C[C@@H]1CN([C@H](C)CO)C(=O)c2cc(NC(=O)Nc3ccc(F)cc3)ccc2O[C@@H](C)CCCCO[C@@H]1CN(C)Cc1ccc(C(=O)O)cc1
  i	i	i	i
C[C@@H]1CN([C@@H](C)CO)C(=O)c2cc(NC(=O)Nc3ccccc3)ccc2O[C@@H](C)CCCCO[C@H]1CN(C)Cc1ccncc1
  +	i	i	i
CC(C)NC(=O)Nc1ccc2c(c1)C(=O)N([C@@H](C)CO)C[C@@H](C)[C@H](CN(C)C)O2
  i	i	i	i
C[C@H]1CCCCO[C@H](CN(C)Cc2ccc(C(=O)O)cc2)[C@@H](C)CN([C@@H](C)CO)C(=O)c2cc(NC(=O)c3ccncc3)ccc2O1
  i	i	i	i
